# VDR inh – Inhibitors of the vitamin D receptor (VDR): qHTS. Vitamin D3 receptor (Homo sapiens), P11473. VDR-SRC2-3 peptide fluorescence polarization, 2 h. Potency, µM, for the others: max response, negative = inhibition, usual class: inhibitors. hit rate 0.93% among 400,000. AID 504847, 2011; active = well fitted inhibition curve with a large enough effect; inconclusive = small, poorly fitted or top-dose-only effect, or another doubt; inactive = no such curve, though single readings can be large or run the other way; note: series mostly up to about 120 µM
# Target sequence (P11473 whole entry, looked up): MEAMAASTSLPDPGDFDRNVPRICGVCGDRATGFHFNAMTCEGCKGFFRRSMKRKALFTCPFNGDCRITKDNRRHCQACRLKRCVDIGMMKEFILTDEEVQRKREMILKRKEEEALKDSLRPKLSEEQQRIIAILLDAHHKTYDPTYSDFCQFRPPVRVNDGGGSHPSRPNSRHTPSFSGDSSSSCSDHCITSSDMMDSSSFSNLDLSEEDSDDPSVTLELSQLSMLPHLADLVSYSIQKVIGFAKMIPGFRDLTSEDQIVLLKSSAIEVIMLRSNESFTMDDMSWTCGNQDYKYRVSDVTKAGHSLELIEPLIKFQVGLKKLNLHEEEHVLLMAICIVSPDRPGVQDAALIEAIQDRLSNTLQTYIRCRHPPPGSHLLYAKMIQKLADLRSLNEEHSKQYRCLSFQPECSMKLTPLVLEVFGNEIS
#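 Fluorescence polarization assay of small-molecule disruption of VDR binding to coregulator peptide SRC2-3. Compounds and controls pin-transferred, then read after 2 h incubation at ambient room temperature.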
# Starred values were filed as active, the others as inactive; ? = inconclusive; & = joins results of further samples. % is set by controls: 0 for no effect and ±100 for the full control effect; potency is the fitted concentration of half-maximal effect.
SMILES,VDR inh
O=c1ccc(-c2ccccc2)no1,1%
O=C(C1CC(=O)N(c2ccc(F)cc2)C1)N1CCC(c2nc3ccccc3[nH]2)CC1 (stereo unspecified),-12%
COc1ccc(/C=C/CN2CCCC(CCC(=O)NCc3ccc(F)c(F)c3)C2)cc1 (stereo unspecified),-3%
COC(=O)Nc1ccc(S(=O)(=O)N2CCCC(C(=O)Nc3cccnc3)C2)cc1 (stereo unspecified),-10%
CC1CCN(S(=O)(=O)c2ccc3c(c2)N(CC(=O)NCCN(C)C)C(=O)CO3)CC1,1%
Cc1ccc2cc3cc(C(=O)N4CCN(c5ccc(Cl)cc5)CC4)oc3nc2c1,-14%
CCn1c(CSc2nnc3ccccn23)nc2cc(C(=O)O)ccc21,?
CCn1c(=O)cc(SCC(=O)NCc2ccc(Cl)cc2)c2ccccc21,3%
Nc1cc(C(F)(F)F)cc2c1SCC(=O)N2,-10%
Clc1ccc(-c2cnn3c(-c4ccncc4)ccnc23)cc1,-5%
COc1ccc(NC(=O)Cn2c(=O)n(Cc3ccc(C(=O)NCc4ccccc4Cl)cc3)c(=O)c3ccccc32)cc1,-16%
N=C(c1cccc([N+](=O)[O-])c1)N1CCCCCC1,-10%
CC(Sc1nnc(CNc2cccc3ccccc23)n1-c1ccccc1)C(=O)N/N=C/c1ccco1 (stereo unspecified),-10%
Cc1ccc(C2c3[nH]c4ccccc4c3CCN2C(=O)c2cccc(C)c2)cc1 (stereo unspecified),4%
O=C(NC(=S)Nc1cccc2[nH]ncc12)c1ccccc1,6%
Cc1nc2n(n1)C(c1ccccc1)C1=C(CC(c3ccco3)CC1=O)N2 (stereo unspecified),-21%
CN1c2cc(O)c(N=NC(N)=O)cc2CC1S(=O)(=O)O (stereo unspecified),-7%
COc1cccc(/C=C/C(=O)OCC(=O)c2ccc(C)c(C)c2)c1OC,2%
NC(=O)CSc1oc(-c2ccco2)nc1S(=O)(=O)c1ccc(F)cc1,3%
Cc1c(-c2cccc(NC(=O)C(C)(C)C)c2)nc2ncccn12,2%
CC(Oc1ccc(F)cc1)C(=O)Nc1cc(S(=O)(=O)N2CCOCC2)ccc1N1CCCCC1 (stereo unspecified),16%
Cc1ccc(N2CCN(/N=C/C(Cl)=C/c3ccccc3)CC2)cc1,-11%
CC1(c2cnc(Nc3ccccc3)s2)CCC(=O)O1 (stereo unspecified),-17%
O=C(CNC(=O)C1CC(=O)N(c2cccc3ccccc23)C1)Nc1ccccc1Br (stereo unspecified),7%
COc1cc(NC(=O)c2cc(C)no2)c(OC)cc1Cl,-14%
O=c1oc2ccccc2c(Nc2ccc(F)cc2)c1[N+](=O)[O-],-3%
Cc1ccc(C)c(Oc2nnnn2-c2ccccc2)c1,-6%
Clc1cccc(Cl)c1-c1noc(CN2CCOCC2)n1,3%
CCCS(=O)(=O)n1nc(-c2ccc(Br)cc2)cc1N,1%
Cc1ccc(SCCNS(=O)(=O)c2ccc(F)cc2)cc1,6%
N/C(=N\OS(=O)(=O)c1ccc(Cl)cc1)c1cccnc1,-10%
Cc1ccc(-n2cc(CNC(C)Cn3cncn3)c(-c3ccc(F)cc3)n2)cc1 (stereo unspecified),-13%
O=C(CSc1nc(=O)n(Cc2cccnc2)c2c1CCC2)Nc1ccc(F)cc1F,13%
CC1(c2nnc(Cc3ccccc3)o2)CC(c2ccc(F)cc2)=NO1 (stereo unspecified),-4%
CCCOC(=O)CC1C(=O)NCCN1Cc1ccccc1C (stereo unspecified),-8%
CC(C)(C)C1CCc2c(sc3nc(-c4cc5ccccc5oc4=O)[nH]c(=O)c23)C1 (stereo unspecified),5%
CCOc1cc(C#N)c(NC(=O)Cn2nnc(-c3ccc(C)cc3)n2)cc1OCC,-6%
[O-][n+]1ccccc1SC/C=C/c1ccccc1,-14%
CCN(CC(=O)Nc1c(F)cccc1F)C(=O)c1ccc(S(=O)(=O)N2CCCCCC2)cc1,-9%
CC1CCN(CCCNC(=O)c2ccc3c(=O)n(Cc4ccc(Cl)cc4)c(=S)[nH]c3c2)CC1,-26%
CCC1=NN(C(=O)C(=O)Nc2ccccc2OC)C(O)(C(F)(F)F)C1 (stereo unspecified),-8%
O=C(O)C1OC(Oc2cc3oc(-c4ccccc4)cc(=O)c3c(O)c2O)C(O)C(O)C1O (stereo unspecified),-9%
Cn1nc(-c2ccc(Cl)cc2)c2cc(C(=O)N3CCOCC3)sc21,-8%
COc1cccc(-n2nnc3c(=O)n(CC(=O)N4CCC(C)CC4)cnc32)c1,-1%
CC(C)(C)C1CCc2c(sc(NC(=O)c3cccc(Cl)c3)c2C(=O)NCc2ccco2)C1 (stereo unspecified),-26%
Cn1cnc2c(=O)oc3ccc(S(=O)(=O)N4CCN(c5ccccc5)CC4)cc3c21,-5%
O=C1CSC(=S)N1CC1CCCO1 (stereo unspecified),2%
COc1ccc(N=c2scc(-c3ccc(OC)cc3)n2CCO)cc1,-3%
CCCC(=O)N1c2ccccc2C(N(C(C)=O)c2ccccc2)CC1C (stereo unspecified),5%
CCCCN(C)CCn1c(=S)[nH]c2ccc(N3CCOCC3)cc2c1=O,2%
O=[N+]([O-])c1ccc2c(c1)nnn2-c1ccccc1,-10%
CCO[C@H]1OC(C(=O)NCc2nc3ccccc3[nH]2)=C[C@@H](c2ccccc2)[C@@H]1CCCO,-7%
Cc1ccc(Sc2ccc(CO)cc2[N+](=O)[O-])cc1,-2%
COc1ccc2ccccc2c1CNC(C)c1ccccc1 (stereo unspecified),12%
CCCCN(CCCC)CCNC(=O)Cn1nc(CC)n2c(cc3sc(C)cc32)c1=O,14%
CC(C)COc1ccc(C(=O)OCC(=O)N(C)CC(=O)Nc2ccc(F)cc2)cc1,-2%
Cc1ccc(/C=N/NC(=O)CNC(=O)c2ccc(C)c([N+](=O)[O-])c2)o1,0%
O=C(COC(=O)/C=C/c1ccc2ccccc2n1)NNC(=O)c1ccc([N+](=O)[O-])cc1,-3%
O=C(Nc1ccc(S(=O)(=O)NCCc2ccccc2)cc1)c1ccco1,0%
Cc1ccc(N(C)C(=O)N2CCN(S(=O)(=O)c3ccc4ccccc4c3)CC2)cc1,-13%

# (more compounds)
SMILES,VDR inh
Cc1ccc(OC(=O)c2cc(C)nn2C(C)(C)C)cc1,1%
CCN(CC)S(=O)(=O)c1cccc(C(=O)Nc2ccc(S(=O)(=O)NC3=NCCCCC3)cc2)c1,-23%
O=C(c1ccc(NC(=O)C(c2ccccc2)c2ccccc2)cc1)c1ccc(C(=O)O)c(C(=O)O)c1,?
Cc1cc(C)cc(C(=O)NCCC(=O)N2CCC3(CC2)NCCc2[nH]cnc23)c1,3%
Cc1ccc(N2C(=O)NC(NS(=O)(=O)c3ccccc3)(C(F)(F)F)C2=O)cc1 (stereo unspecified),-17%
CSc1nc(N)c(NC(=O)c2ccc(Br)o2)c(=O)[nH]1,17%
O=C(CN(c1ccc(Cl)c(C(F)(F)F)c1)S(=O)(=O)c1ccccc1)N1CCOCC1,-1%
Cc1ccc(Cl)cc1N1CCN(C(=O)Cc2cn(C)c3ccccc23)CC1,-4%
Cc1ccc(S(=O)(=O)N2CCCCC2C(=O)N2CCN(Cc3ccccc3)CC2)cc1 (stereo unspecified),1%
COc1ccc(NC(=S)N(CCc2c(C)[nH]c3ccc(C)cc23)Cc2ccco2)cc1,-1%
COc1ccc(CNC(=S)Nc2cccc(OC)c2)cc1,-9%
CCOC12CC(C)(C)CC(C)(CC3=C1C(=O)CC(C)(C)C3)C2 (stereo unspecified),-16%
O=C(O)c1cccc(-c2nnn(Cc3ccccc3)n2)c1,-9%
COc1ccc(-n2nc(C(=O)Nc3ccccn3)c3c4ccccc4n(C)c3c2=O)cc1,-15%
Cc1ccc(NC(=O)c2cc3cc(C)ccc3n2C)cc1,1%
O=C1C(=O)N(c2ccccn2)C(c2ccc(Br)cc2)/C1=C(/O)c1ccc(Br)cc1 (stereo unspecified),-23%
Cc1c(Br)c([N+](=O)[O-])nn1C(C)C(=O)NCc1cccs1 (stereo unspecified),-21%
COc1cc(C)c(S(=O)(=O)n2c([N+](=O)[O-])cnc2C)cc1C,-21%
CCOCCn1c(CN2CCN(CCO)CC2)nc2c1c(=O)n(C)c(=O)n2C,-5%
COc1cccc(CNC(=O)COc2cc(O)c3c(c2)OC(C)(C)CC3=O)c1,-6%
CCc1nnc(NC(=O)CSc2nnc(-c3cccnc3)n2CCc2ccccc2)s1,-1%
C[N+]1(CN2C(=O)C3C4C=CC(C4)C3C2=O)CCCCC1 (stereo unspecified),-23%
O=C(Cc1cn(-c2ccccc2)nc1-c1ccccc1)N1CCCCC1,-7%
Cc1cccc(Nc2nnc(SCC(=O)NCC3CCCO3)s2)c1 (stereo unspecified),4%
O=C(CCCn1ncn2c(cc3occc32)c1=O)NCc1ccccc1F,4%&8%
COCc1ccc(CN2CCC(C(=O)Nc3cccc(-c4cccc(Cl)c4)c3)CC2)o1,21%
C[C@H](CO)N1C[C@H](C)[C@@H](CN(C)C(=O)Nc2ccccc2)Oc2c(NC(=O)C3CCCCC3)cccc2C1=O,-26%
Cn1c(=O)[nH]c(=O)c2c1nc(NC1CCCCC1)n2Cc1ccccc1,-2%
O=C(CSCc1cnn(-c2ccccc2)c1-n1cccc1)NCc1cccnc1,2%
COc1ccc(CCSc2nnc(C3CCCCC3)n2N)cc1,-4%
COc1cccc(C(=O)NNC(=S)NC2CCCCC2)c1,-18%
OC(CCN1CCCCC1)c1ccc(-c2ccccc2)cc1 (stereo unspecified),-25%
CCn1c(CNc2ccc(F)cc2)nnc1SCC(=O)N1CCCc2ccccc21,-6%
CCOc1cc(N2CCOCC2)c(OCC)cc1NC(=O)c1cc(C)cc(C)c1,5%
Cc1cc(-c2ccccc2C(=O)Nc2ccccc2O)on1,0%
Cc1ccc(NC(=O)C2CCN(C(=O)NC3CCCCC3)CC2)c(C)c1,2%
O=C(c1c(F)cccc1F)N1CCCC(c2nc(-c3ccc(Cl)cc3)no2)C1 (stereo unspecified),-15%
CC(=O)Nc1ccc(S(=O)(=O)Nc2cc(C)cn(Cc3ccc(C)cc3)c2=O)cc1,-9%
O=C(Nc1ccc(-c2ccco2)cc1)C1CCCN(Cc2ccc(CO)o2)C1 (stereo unspecified),-7%
c1ccc(-c2nccc(-c3ccc4c(c3)OCO4)n2)cc1,-22%
CCn1nc2cc(C(=O)NCc3cc(C(F)(F)F)cc(C(F)(F)F)c3)ccc2c1OC,-13%
O=c1c2cc(NC(=S)N3CCC(N4CCCCC4)CC3)ccc2nc2n1CCCCC2,-3%
Cc1cc(C)cc(-n2nnc(C(=O)NCc3ccccc3)c2N)c1,17%
Cc1ccsc1/C=N/NC(=O)CNC(=O)c1ccccc1,14%
O=C(CN1CCOCC1)NN=C(c1ccccc1)c1ccccc1,1%

# A draw from above in order of formula weight, smallest number first:
SMILES,VDR inh
N=C(c1cccc([N+](=O)[O-])c1)N1CCCCCC1,-10%
C[N+]1(CN2C(=O)C3C4C=CC(C4)C3C2=O)CCCCC1 (stereo unspecified),-23%
Cc1cc(-c2ccccc2C(=O)Nc2ccccc2O)on1,0%
CCOC12CC(C)(C)CC(C)(CC3=C1C(=O)CC(C)(C)C3)C2 (stereo unspecified),-16%
Cc1cc(C)cc(-n2nnc(C(=O)NCc3ccccc3)c2N)c1,17%
Cc1nc2n(n1)C(c1ccccc1)C1=C(CC(c3ccco3)CC1=O)N2 (stereo unspecified),-21%
Cn1c(=O)[nH]c(=O)c2c1nc(NC1CCCCC1)n2Cc1ccccc1,-2%
Cc1ccc(NC(=O)C2CCN(C(=O)NC3CCCCC3)CC2)c(C)c1,2%
Cc1cccc(Nc2nnc(SCC(=O)NCC3CCCO3)s2)c1 (stereo unspecified),4%
O=C(CCCn1ncn2c(cc3occc32)c1=O)NCc1ccccc1F,4%&8%
O=C(Nc1ccc(S(=O)(=O)NCCc2ccccc2)cc1)c1ccco1,0%
NC(=O)CSc1oc(-c2ccco2)nc1S(=O)(=O)c1ccc(F)cc1,3%
CCn1c(=O)cc(SCC(=O)NCc2ccc(Cl)cc2)c2ccccc21,3%
O=C(C1CC(=O)N(c2ccc(F)cc2)C1)N1CCC(c2nc3ccccc3[nH]2)CC1 (stereo unspecified),-12%
COc1ccc(/C=C/CN2CCCC(CCC(=O)NCc3ccc(F)c(F)c3)C2)cc1 (stereo unspecified),-3%
CCn1nc2cc(C(=O)NCc3cc(C(F)(F)F)cc(C(F)(F)F)c3)ccc2c1OC,-13%
CCN(CC(=O)Nc1c(F)cccc1F)C(=O)c1ccc(S(=O)(=O)N2CCCCCC2)cc1,-9%

# More entries follow:
SMILES,VDR inh
COc1ccc(CN(C(=O)c2cccs2)c2nccs2)cc1OC,5%
Clc1ccc(N2CCN(c3ncnc4c3nc3n4CCCC3)CC2)cc1,2%
COc1ccc2c(CC(=O)Nc3ncc(C)s3)coc2c1,0%
CCCn1c(-c2cccc(Br)c2)nc2ccccc21,4%
COc1ccc(CC(=O)NCCc2sc3nc(-c4ccc(OC)cc4)nn3c2C)cc1,5%
CCc1nn(CCCN2CCN(c3cccc(Cl)c3)CC2)c(=O)n1CCOc1ccccc1,?
CC(=O)N1CCOc2ccc(S(=O)(=O)N3CC(C)CC(C)C3)cc21 (stereo unspecified),-4%
COc1ccc(NC(=O)c2cccs2)cc1,-17%
COc1ccc(C(=O)NCC2(c3ccc(OC)c(OC)c3)CCCC2)c(OC)c1,-21%
CC(C)CC(=O)Nc1cccc(-c2nc3ccccc3o2)c1,-6%
COc1ccc2nc(SCC(=O)NC3CCCc4ccccc43)[nH]c2c1 (stereo unspecified),-6%
CCOc1ccccc1N(CC)C(=O)Nc1cn(C)c(=O)c2ccccc12,14%
COc1ccc(CC(=O)Nc2cc(-c3nc4cccnc4s3)ccc2C)cc1,-6%
CCn1c(C)cc(C(=O)CSc2nnnn2C2CCCC2)c1C,-13%
CC(=O)c1ccc(OCCCC(=O)Nc2ccc(S(=O)(=O)N3CCOCC3)cc2)cc1,-4%
Cc1ccccc1OCCSc1nnc(-c2ccc([N+](=O)[O-])cc2)o1,4%
CCC1CCc2c(sc(NC(=O)C3c4ccccc4Oc4ccccc43)c2C#N)C1 (stereo unspecified),-16%

# Screening data: PubChem BioAssay, National Center for Advancing Translational Sciences (NCATS)

# Only part of the results is shown; rates above refer to the full screens.
